High-throughput results as filed in PubChem BioAssay.
Rango release inh – qHTS Assay for Inhibitors of RanGTP induced Rango (Ran-regulated importin-beta cargo) - Importin beta complex dissociation. Snurportin-1 (Homo sapiens) + GTP-binding nuclear protein Ran (Homo sapiens) + Importin …. Biochemical FRET Rango-importin beta, RanGTP-induced dissociation. Potency, µM (series often up to 46.1 µM), inactives show at the highest dose activity change, negative = inhibition. actives 0.071% (n = 340,000); active means falling FRET ratio curve, often poorly fitted, with flat reads before Ran was added; inconclusive means other falling curves, or compound fluorescence or quenching; inactive means flat or rising ratio curve;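 also: potency is read from the fitted curve at half-maximal effect; % of control where 0% means no effect; nearly all actives have a fitted effect of over 45% in size; -100% = wells without RanGTP and RCC1; the record marks most hits as doubtful in a second field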
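Quantitative HTS using a FRET biosensor: 0.1 uM Rango, 0.25 uM importin beta, 0.6 uM Ran, 2 mM GTP, 0.2 uM RCC1 final, PBS with DTT, Tween-20 and BSA. Post-read taken 45 min after Ran addition.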
GLA inh pH 4.5 – qHTS Assay for Inhibitors of Human alpha-Galactosidase at pH 4.5. Alpha-galactosidase A (Homo sapiens), P06280. purified enzyme, 4-MU-alpha-Gal fluorescence, pH 4.5. activity change, negative = inhibition, % at 105 µM. 230,000 tested, under 10 active; inconclusive = small, poorly fitted or top-dose-only inhibition, or a rising curve; inactive = flat fitted curve, though single readings scatter; no compound was filed as active;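 also: 0% = full activity with enzyme and -100% = basal without enzyme; dose as in the result columns while the protocol names 77 µM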
Rango-impB inh – qHTS Assay for Inhibitors of Rango (Ran-regulated importin-beta cargo) - Importin beta complex formation | Rango CFP/YFP FRET sensor + importin beta, 45 min | actives 0.031% (n = 340,000) | Potency, µM (top dose mostly 92.2 µM), without a hit: at the top dose inhibition of complex formation | Importin subunit beta-1 (Homo sapiens), Q14974 | AID 540263, 2011; active = rising FRET ratio curve, often small or poorly fitted; inconclusive = mostly compound fluorescence or quenching in the first reads; inactive = flat curves in all reads;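 also: potency is read from the fitted curve at half-maximal effect; 0% = DMSO wells and 100% = buffer wells lacking importin beta; nearly all actives have a fitted effect of over 15% in size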
Target sequence (Q14974 whole entry, looked up): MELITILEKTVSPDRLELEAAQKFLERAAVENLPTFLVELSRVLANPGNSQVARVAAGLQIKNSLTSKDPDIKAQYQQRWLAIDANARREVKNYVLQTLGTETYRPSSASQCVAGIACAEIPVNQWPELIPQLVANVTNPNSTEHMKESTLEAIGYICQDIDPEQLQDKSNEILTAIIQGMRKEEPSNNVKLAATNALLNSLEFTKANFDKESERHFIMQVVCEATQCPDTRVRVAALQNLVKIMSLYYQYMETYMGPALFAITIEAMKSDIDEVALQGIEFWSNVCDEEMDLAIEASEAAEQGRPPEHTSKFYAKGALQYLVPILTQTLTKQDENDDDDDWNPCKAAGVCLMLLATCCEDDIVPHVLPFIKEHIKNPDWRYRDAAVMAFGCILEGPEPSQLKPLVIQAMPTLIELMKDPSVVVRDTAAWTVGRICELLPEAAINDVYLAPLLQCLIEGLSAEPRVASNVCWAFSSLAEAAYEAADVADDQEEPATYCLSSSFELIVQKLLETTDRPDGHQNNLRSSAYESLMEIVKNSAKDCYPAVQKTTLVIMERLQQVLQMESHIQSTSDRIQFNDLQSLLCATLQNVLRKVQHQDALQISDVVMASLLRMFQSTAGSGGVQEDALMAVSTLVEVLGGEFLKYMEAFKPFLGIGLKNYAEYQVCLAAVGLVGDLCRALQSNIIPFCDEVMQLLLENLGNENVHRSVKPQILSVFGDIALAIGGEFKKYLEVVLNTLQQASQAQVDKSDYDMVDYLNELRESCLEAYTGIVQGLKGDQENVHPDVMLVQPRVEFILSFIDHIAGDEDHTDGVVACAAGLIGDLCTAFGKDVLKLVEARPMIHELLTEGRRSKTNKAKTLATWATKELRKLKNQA
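Inhibition scored from the CFP 486 nm/YFP 530 nm FRET ratio 45 min after adding 0.125 microM importin beta to 50 nM Rango biosensor preincubated 5 min with compound (room temperature, PBS with DTT, Tween-20, BSA). No-importin wells as positive control.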
miR-21 FLuc – qHTS Assay for Modulators of miRNAs and/orActivators of miR-21. HeLa miR-21 FLuc reporter, luciferase, 48 h. Potency, µM (highest dose often 38.3 µM), inactives show at the top dose reporter change, positive = more light. 340,000 tested, under 10 active. AID 2288, 2010; active = well fitted rising curve with a large enough effect; inconclusive = small, poorly fitted or top-dose-only effect; inactive = no such curve, though single readings can be large or run the other way;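 also: % of control where 0% means no effect; miR-21 action dims this reporter so a rising signal means less miR-21 action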
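HeLa cells stably expressing CMV-driven firefly luciferase with a downstream miR-21 binding sequence, endogenously expressing miR-21, were treated with titrations (up to about 40uM final) for 48 hours at 37 degree Celsius. Luciferase luminescence was read after lysis.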
Active calls of the source: *; ? = inconclusive; / = not tested or not shown; & = joins results of further samples.

Compound | Rango release inh | GLA inh pH 4.5 | Rango-impB inh | miR-21 FLuc
CCN(C(=O)C1CCCN1S(=O)(=O)c1ccc2c(c1)n(C)c(=O)c(=O)n2C)c1ccccc1 (stereo unspecified) | 5% | / | -5.0% | 1%
O=C(CC12CC3CC(CC(C3)C1)C2)Nc1cccc2ncccc12 | -13% | -22 | -2.4% | -15%
CCCCc1ncc(CN2CCC(n3nccc3NC(=O)c3ccccc3OC)CC2)[nH]1 | 22% | / | -0.1% | -9%
O=C(Nc1nnc(S(=O)(=O)N2CCCCCC2)s1)c1ccccc1Cl | 22% | / | -5.2% | -5%&22%
Cc1cc(C)c(N(C(=O)c2csnn2)C(C(=O)NC(C)(C)C)c2ccncc2)c(C)c1 (stereo unspecified) | 4% | 2 | -0.1% | 0%
Cc1ccc(C)c(NC(=O)c2ccc(S(=O)(=O)C(F)F)cc2)c1 | 7% | 4 | 0.9% | -8%
COc1ccc(NC(=O)C(C)NS(=O)(=O)c2ccccc2)cc1Cl (stereo unspecified) | 5% | 5 | 1.8% | -1%
COC(=O)C1=C(C)N(c2cccc3ccccc23)C(=O)C1 | -2% | -10 | -0.6% | 0%
Cc1ccc(-c2nnn(CC(=O)NCCc3ccc4c(c3)OCO4)n2)cc1 | 0% | 11 | 0.1% | 1%
COC(=O)c1ccccc1NC(=O)Cn1nnc(-c2ccc3c(c2)OCO3)n1 | -1% | / | -1.9% | 0%
N#CCCN(C(=O)COC(=O)Cc1ccc(Br)cc1)c1ccccc1 | 0% | 6 | 0.1% | 0%
O=C(/C=C/c1ccccc1)OCC(=O)N1CCN(c2ccccc2)CC1 | -4% | / | 0.1% | /
Cc1nnc(SCC(=O)NCc2ccc3c(c2)OCO3)n1C | -6% | 0 | 0.4% | 0%
C[C@H](CO)N1C[C@H](C)[C@@H](CN(C)S(=O)(=O)c2ccc(F)cc2)Oc2ccc(NC(=O)CCC(F)(F)F)cc2C1=O | 0% | / | -0.8% | /
O=S(=O)(Nc1ccc2c(c1)nc1n2CCOC1)c1ccc(Cl)cc1 | 0% | -1 | -0.6% | -10%
Brc1ccccc1-c1nnc(CSc2nncn2-c2ccccc2)o1 | 2% | 4 | 2.1% | -6%
C#CCN(C#N)c1nc(NCC)nc(NC(C)C)n1 | -1% | -1 | -0.4% | -4%
CC1CCc2sc3ncnc(N4CCOCC4)c3c2C1 (stereo unspecified) | 0% | 1 | 0.5% | -9%
CC(=O)C1C(c2ccc(C)cc2)c2c(noc2C)CC1(C)O (stereo unspecified) | 13% | -10 | 1.4% | 1%
O=C1c2ccccc2C(=O)N1CCCn1c2ccc(Cl)cc2c2nc3ccccc3nc21 | 12% | / | 0.2% | /
CC(C)OC(=O)CSc1nnc(-c2ccccc2)n1N | 9% | 0 | -0.3% | -6%
Cc1nn(-c2nc3ccccc3[nH]2)c(=O)c2ccccc12 | 3% | -1 | 1.3% | ?
CC(C)(C)NC(=O)COC(=O)c1ccc(S(=O)(=O)N2CCCC2)cc1 | 0% | 3 | 1.1% | 0%
O=C(O)CCN1CCc2ccccc21 | -10% | 6 | ? | 0%
CN1CCN(S(=O)(=O)c2cccc(C(=O)N(C)CC(=O)Nc3ccc(F)c(F)c3F)c2)CC1 | -2% | / | -4.5% | /
C[C@@H](C(=O)Nc1cc(C(F)(F)F)ccc1N1CCOCC1)N1C(=O)C2CC=CCC2C1=O (stereo partly specified) | -10% | / | -0.8% | /
CC(C)[C@H](NS(=O)(=O)c1ccc2c(c1)OCCO2)C(=O)OCC(=O)Nc1ccccc1Cl | -14% | -23 | -2.0% | -7%
CC(C)c1nnc(NC(=O)Cn2nc(-c3ccc4c(c3)OCCO4)ccc2=O)s1 | -5% | 2 | 1.7% | 2%
CCOC(=O)C1CCCN(c2cc(=O)n(C3CCCCC3)c(=O)[nH]2)C1 (stereo unspecified) | 9% | 4 | 0.0% | 0%
O=C(Nc1ccnc(-c2ccncc2)n1)c1ccc(F)cc1 | -1% | -2 | 0.9% | 0%
COC(=O)c1sc(SC)c(S(=O)(=O)C(C)C)c1N/N=C(\C#N)C(=O)c1ccccc1 | ? | -18 | -2.5% | -1%
COCC1CCN(Cc2cn[nH]c2-c2ccc(OC)cc2F)C1 (stereo unspecified) | 22% | 3 | -1.3% | 1%
O=C(Nc1ccccc1C(=O)N/N=C/c1ccco1)c1ccccc1 | 9% | -4 | -1.9% | -7%
CC1CCCCC1NC(=O)CCNC(=O)N1CC(=O)Nc2ccccc21 (stereo unspecified) | -2% | / | 3.2% | 1%
COc1cc(/C=C/C(=O)OCC(=O)N2CCCC2)cc(OC)c1OC | -1% | / | -2.7% | /
O=C(c1ccco1)N1CCN(C(=O)c2cc3c(s2)-c2ccccc2OC3)CC1 | 1% | 5 | -3.1% | -20%
O=C(CCn1c(=O)oc2ccccc21)NCCN1CCOCC1 | -21% | 1 | -0.1% | 5%
O=C1c2ccc(Oc3ccc([N+](=O)[O-])cc3)cc2C(=O)N1CCO | -1% | / | 1.3% | -2%
COc1ccc(S(=O)(=O)Nc2cc(C)ccn2)cc1 | -2% | -8 | -1.1% | -4%
Cc1cccc(N2CCN(C(=O)Cn3c(=O)[nH]c4ccsc4c3=O)CC2C)c1 (stereo unspecified) | -8% | -4 | -0.9% | -1%
O=C(c1cccc(-c2ccc(O)cc2)c1)N1CCN(c2ccc(F)cc2)CC1 | 9% | -2 | 0.1% | -6%
Cc1ccc(O)c(C(=O)c2cc(C#N)c(=O)n(CC3CCCO3)c2)c1 (stereo unspecified) | -21% | -7 | 4.2% | 4%
CC(C)NC(=O)C1CC=CCC1C(=O)O (stereo unspecified) | -10% | -2 | -3.0% | -3%
COc1ccc(OCCn2nnc(-c3ccc(Cl)cc3)n2)cc1 | -4% | 8 | -4.2% | 2%
CN(C)c1ccc(/C=N/NC(=O)c2cnc3ccccc3c2)cc1 | -2% | 0 | 2.0% | -3%
COc1ccc(CNS(=O)(=O)CCNCc2ccccc2OC)cc1 | 2% | / | 0.5% | /
O=C(c1nc2ccccn2c1CNCCCn1cccn1)N1CCCC1 | 3% | 5 | -1.9% | -3%
CN(C)c1nc(SCCOC(=O)c2ccccc2)nc(N(C)C)n1 | 6% | 0 | 0.3% | -10%
O=C(COC(=O)c1ccccc1NC(=O)c1ccco1)NC1CCCCC1 | -3% | 5 | 4.1% | -1%
CC(C)c1ccc(NC(=O)NCc2cccnc2)cc1 | -5% | / | -0.7% | -23%

Taken from the entries so far, 2 compounds:
Compound | Rango release inh | GLA inh pH 4.5 | Rango-impB inh | miR-21 FLuc
O=C(Nc1ccccc1C(=O)N/N=C/c1ccco1)c1ccccc1 | 9% | -4 | -1.9% | -7%
CC1CCCCC1NC(=O)CCNC(=O)N1CC(=O)Nc2ccccc21 (stereo unspecified) | -2% | / | 3.2% | 1%

Later entries:
Compound | Rango release inh | GLA inh pH 4.5 | Rango-impB inh | miR-21 FLuc
Cc1ccc(S(=O)(=O)c2nc(S(C)(=O)=O)sc2N(C)C)cc1 | 2% | -10 | ? | -1%
CC(=O)CCc1oc2ccc(C)cc2c1Cc1ccccc1 | 0% | / | -0.1% | -12%
O=C(c1n[nH]c(=O)c2ccccc12)N1CCN(S(=O)(=O)c2ccccc2Cl)CC1 | 15% | / | 5.5% | /
S=c1[nH]nc(-c2ccccc2)n1CC1CCCO1 (stereo unspecified) | 1% | 20 | -3.0% | -1%
CCCc1cc2c(=O)n(NC(=O)c3nn(C)cc3[N+](=O)[O-])c(C)nc2s1 | 12% | 1 | -2.5% | -1%
COC(=O)c1cc(OC)c(OC)cc1NC(=O)C(C)c1ccc([N+](=O)[O-])cc1 (stereo unspecified) | -1% | -5 | -0.5% | -3%
COc1ccc(OCCCCN2CCC(C)CC2)cc1 | 10% | / | -0.5% | -5%
Cc1cc(C)cc(N(CC(=O)NCc2ccco2)C(=O)CCC(=O)Nc2nccs2)c1 | -7% | 5 | -0.4% | 1%
CN(C)c1ccc(CNCc2cccnc2)cc1 | 16% | / | -2.9% | /
CCOc1cc(CNCc2cccnc2)ccc1OCC(=O)NC(C)(C)C | 9% | -2 | -2.0% | 7%
Fc1ccccc1OCCCn1ccnc1 | 1% | / | 4.0% | -2%
CC1CC(C)CN(C(=O)COC(=O)c2ccc3ncsc3c2)C1 (stereo unspecified) | -14% | / | -3.6% | /
COc1ccc(NC(=O)CSc2nc3[nH]c(=O)[nH]c(=O)c3s2)cc1OC | -2% | / | -1.2% | 1%
COc1cc(CN(C)Cc2cccc3ccccc23)cc([N+](=O)[O-])c1O | 5% | / | 3.8% | -1%
O=C(CN1C(=O)c2cccc([N+](=O)[O-])c2C1=O)OCC(=O)N1CCCCC1 | -9% | / | 3.4% | /
O=C(NCC(=O)N(c1ccccc1)C(C(=O)NC1CCCC1)c1ccncc1)c1cccs1 (stereo unspecified) | -5% | / | -0.8% | 6%
Cc1[nH]c2ccccc2c1CCN(Cc1cccnc1)C(=S)NC(C)(C)C | -1% | / | -1.9% | -5%
CC(C)(C)C(=O)Nc1nc(=S)ss1 | -14% | 3 | 1.2% | 1%
CCN(CC)C(=O)CSc1nc(C)cc(C)n1 | -13% | 2 | 0.1% | -1%
Cc1noc(C)c1S(=O)(=O)N1CCC(C(=O)NC2CCCc3ccccc32)CC1 (stereo unspecified) | 8% | 0 | ? | -1%
CC(/C=N/n1c(C2CCCCC2)n[nH]c1=S)=C\c1ccccc1 | -13% | 6 | 0.0% | 0%
COc1cccc(OC(=O)c2cc3ccccc3oc2=O)c1 | 26% | 10 | -2.6% | -8%
CCCS(=O)(=O)N1CCN(C(=O)c2cccnc2)CC1 | 1% | -3 | -5.1% | -4%
COc1ccc(C(=O)NCc2ccccc2CN2CCCC2)cc1S(=O)(=O)N1CCOCC1 | 12% | / | -2.7% | /
O=C(NC(=S)Nc1ccc(CN2CCOCC2)cc1)c1ccccc1[N+](=O)[O-] | -20% | 0 | -0.1% | -3%
Cc1cccc(C)c1NC(=O)CNC(=O)c1c(C)nn(-c2ccccc2)c1C | 10% | / | 5.4% | /
N#Cc1c(-c2ccccc2)nc(SCc2nc(N)nc(N3CCCCC3)n2)[nH]c1=O | ? | ? | 0.8% | -4%
CCOc1cc(-c2cc(-c3ccc(OC)cc3)nc(N)c2C#N)ccc1O | -27% | 10 | -0.2% | 2%
CCCN1CCN(C(=S)Nc2ccc3nc(N4CCN(CC)CC4)cc(C)c3c2)CC1 | 3% | -1 | -2.2% | -1%
C/C(CC(=O)Nc1cc(C)ccn1)=N\NC(=O)c1ccncc1 | 4% | / | 1.9% | -8%
CC1=C(C(=O)OC(C)C)C(c2ccc(N(C)C)cc2)C2=C(CC(C)(C)CC2=O)N1 (stereo unspecified) | -15% | -19 | 1.1% | -2%
O=C(N/N=C/c1ccc(OCC(=O)N2CCCCC2)cc1)c1ccccc1O | -14% | -1 | 0.7% | -20%
CN(Cc1nccs1)C(=O)c1ccc(OC2CCN(CCc3ccccc3)CC2)cc1 | 0% | / | -2.5% | 6%
CC(=O)Oc1ccc(C(=O)Nc2ccc(C3(C#N)CCCC3)cc2)cc1 | 1% | / | 0.6% | -37%
CCC(=O)Nc1nnc(-c2ccccn2)o1 | -1% | -4 | -0.2% | -1%
CCOC(=O)c1sc(NC(=S)NC(=O)c2ccc(OC)cc2)nc1C | 11% | / | 4.3% | -11%
COc1ccc(C(C)(C)C)cc1NC(=O)CSc1ncn[nH]1 | 23% | / | -0.5% | /
Cn1c(CC(=O)Nc2ccccc2Cl)nnc1SCC(=O)Nc1nncs1 | -12% | / | 1.1% | 1%
C=CCNc1nc(C(=O)OCC(=O)Nc2cccc(SC)c2)cs1 | -1% | / | 3.6% | /
CCCN=C1N(C)C[C@@H]2[C@@H]3C(=O)N(Cc4ccccc4)C(=O)[C@@H]3[C@](CC)(C(=O)OC)N12 | 0% | / | -4.0% | /
CCCCNC(=O)CCC(=O)NNc1nc2ccccc2c2nc(-c3ccccc3)nn12 | 1% | 0 | -0.6% | -2%&0%

Not all compounds are listed; count on the stated rates, not on these rows.
